# High-throughput results as filed in PubChem.
# Sfp inh: blocks B. subtilis Sfp PPTase activity; hit rate 3.5% among 310,000; Q9F4F7; Biochemical Sfp PPTase activity, qHTS; Potency, µM, inactives show max response, negative = inhibition, actives largely listed as inhibitors; AID 1490; active = well fitted inhibition curve with a large enough effect; inconclusive = small, poorly fitted or top-dose-only effect, or another doubt; inactive = no such curve, though single readings can be large or run the other way;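 note: the enzyme is Sfp with the accession as filed and its product quenches rhodamine fluorescence; potency is the fitted concentration of half-maximal effect; 0% = enzyme reaction without inhibitor and -100% = no enzyme wells; top concentration of the series not given in the record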
#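 After 15 min at room temperature with compound, 15 nM Sfp received 5 uM rhodamine-CoA plus 12.5 uM BHQ-2-ybbR (50 mM Hepes pH 7.6, 10 mM MgCl2). Rate came from the fluorescence difference over 30 min, ex 525/em 598 nm.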
# TRPV1 potentiator: potentiators of human vanilloid receptor 1 (TRPV1) | potentiation, % at 8.33 µM | Q8NER1 | TRPV1-expressing cells, Fluo-8 calcium influx, capsaicin EC20 potentiation; host cell line not named in the record; control for the full effect not named in the record | hit rate 0.02% among 320,000 | AID 540277; active means potentiation above 80%; inconclusive means 30% to 80%; inactive means below 30%; note: 0% is about no effect
#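 Cells expressing TRPV1 were dye-loaded with Fluo-8 and read kinetically: 10 s baseline, 3 min after compound (agonist portion), then 2 min after EC20 capsaicin (allosteric enhancer portion). Calcium-bound dye fluorescence at 480/520 nm.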
# PINK1 expr mod: modulators of PINK1 expression; PINK1 immunofluorescence, high-content cytometry, 24 h; AID 624263; Potency, µM (highest dose often 76.6 µM), without a hit: top-dose activation (PINK1 increase), usual class: activators; hit rate 0.2% among 410,000; active = well fitted activation curve with a large enough effect; inconclusive = small, poorly fitted or top-dose-only effect; inactive = flat fitted curve, though single readings scatter; cell line not stated here;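 note: potency is the fitted concentration of half-maximal effect; % of control where 0% means no effect; nearly all actives have a fitted effect of over 65% in size; a mitochondrial uncoupler was the plate control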
#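 A stable cell line was treated with compounds at 5 concentrations for 24 hours, with CCCP as control. PINK1 levels and mitochondrial localization were measured by immunofluorescence with mitochondrial, cell and nuclear markers after fixation, read by laser-scanning cytometry.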
# Six1-Eya2 inh: Six1/Eya2 interaction inhibition | hit rate 0.56% among 360,000 | AlphaScreen GST-Six1/His-Eya2 binding, biochemical; active compounds read low; control for the full effect not named in the record | activity change, % (concentration not given with the values); in the data active = activity change below about -65%; inconclusive = about -30% to -65%; inactive = above about -30%; note: % is set by controls: 0 for no effect and ±100 for the full control effect
# Target sequence (O00167 whole entry, looked up): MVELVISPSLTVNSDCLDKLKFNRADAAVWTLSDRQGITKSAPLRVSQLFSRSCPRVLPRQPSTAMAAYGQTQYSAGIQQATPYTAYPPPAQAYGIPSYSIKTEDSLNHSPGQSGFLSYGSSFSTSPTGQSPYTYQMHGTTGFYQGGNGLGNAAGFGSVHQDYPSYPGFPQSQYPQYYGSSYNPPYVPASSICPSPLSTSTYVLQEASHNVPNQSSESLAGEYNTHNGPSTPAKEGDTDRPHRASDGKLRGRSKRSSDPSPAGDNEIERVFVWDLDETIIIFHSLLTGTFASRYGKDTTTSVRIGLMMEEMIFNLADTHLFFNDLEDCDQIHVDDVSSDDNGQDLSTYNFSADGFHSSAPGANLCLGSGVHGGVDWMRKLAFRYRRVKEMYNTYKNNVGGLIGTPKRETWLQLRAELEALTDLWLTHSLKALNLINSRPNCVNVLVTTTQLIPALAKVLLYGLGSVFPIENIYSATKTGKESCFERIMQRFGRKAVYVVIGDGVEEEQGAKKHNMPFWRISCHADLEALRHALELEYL
# Target sequence (Q15475 whole entry, looked up): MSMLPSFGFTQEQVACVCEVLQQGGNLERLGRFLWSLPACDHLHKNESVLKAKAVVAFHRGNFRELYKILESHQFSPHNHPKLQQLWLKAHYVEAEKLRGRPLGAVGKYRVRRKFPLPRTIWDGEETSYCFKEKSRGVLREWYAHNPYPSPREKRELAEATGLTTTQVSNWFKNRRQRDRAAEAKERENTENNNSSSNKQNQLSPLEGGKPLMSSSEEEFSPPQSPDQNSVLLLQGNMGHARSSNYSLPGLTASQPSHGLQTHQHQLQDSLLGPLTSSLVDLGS
#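 AlphaScreen with GST-Six1 and His-Eya2 (5X mix: 250 nM and 500 nM), glutathione donor and nickel acceptor beads; buffer 50 mM Tris pH 8.0, 300 mM NaCl, 1 mM TCEP; 1 h at 37 C in the dark.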
# D2 agonist: human D2 receptor agonism in beta-arrestin assay; P14416; DiscoveRx PathHunter D2 beta-arrestin, luminescence, 90 min; 100% = 57 uM dopamine signal; activation, % (test concentration not listed); hit rate 0.084% among 360,000; AID 624465; in the data active = activation above about 40%; inconclusive = about 15% to 40%; inactive = below about 15%; note: compound concentration not given in the record; the text of the record calls up to 30% inactive
#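 Agonist mode: compounds alone added to overnight-plated D2 PathHunter cells for 90 min at 37 C, with 57 uM final dopamine (EC100) defining full response. Beta-arrestin recruitment detected by chemiluminescent reagent, read after 1 h at ambient temperature.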
# CtBP-E1A inh: inhibitors of CtBP/E1A interaction; AlphaScreen GST-E1A/His-CtBP binding, 1536-well; active compounds read low; control for the full effect not named in the record; activity change, % (concentration not given with the values); hit rate 0.49% among 340,000; AID 651724; in the data active means activity change below about -65%; inconclusive means about -30% to -65%; inactive means above about -30%; note: % is set by controls: 0 for no effect and ±100 for the full control effect
#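 Steps: dispense buffer (Tris pH 8.0, NaCl 300 mM, TCEP 1 mM, BSA, Tween 20); add 5X protein mix (GST-E1A, His-CtBP, 125 nM each); pin 23 nL compound; 2 h at 37 °C, dark; add 5X beads (50 ug/mL); 1 h; read.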
# D2 potentiator: potentiates the human D2 dopamine receptor allosterically; P14416; DiscoveRx D2 beta-arrestin cells, luminescence, 90 min; 100% = 57 uM dopamine signal; potentiation, % (test concentration not listed); hit rate 0.23% among 360,000; AID 624464; active = potentiation of 50% or more; inconclusive = 30% to 50%; inactive = 30% or less;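 note: compound concentration not given in the record; tested on top of an EC20 dose of dopamine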
#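 D2 cells co-treated with compound plus 50 nM dopamine (EC20) for 90 min at 37 deg C to detect potentiation. Beta-arrestin recruitment was read as enzyme-fragment luminescence after 1 h at ambient temperature. Full response was set by 57 uM dopamine.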
# Starred values were filed as active, the others as inactive; ? = inconclusive; . = not tested or not shown; & = joins results of further samples; [ ] = remark or other dose.
SMILES,Sfp inh,TRPV1 potentiator,PINK1 expr mod,Six1-Eya2 inh,D2 agonist,CtBP-E1A inh,D2 potentiator
Oc1ccc(N=Nc2cccc(Cl)c2)cc1C=Nc1ccc(N2CCOCC2)cc1,-3.6%,9.9,4.9%,7.2,-9.8,4.8,-18.2
COc1ccccc1CNC(=O)COc1ccccc1OC,8.1%,-8.6,-0.2%,1.2,-2.1,3.8,0.9
COc1ccccc1NS(=O)(=O)c1c(C)nc2sccn2c1=O,17.4%,9.9,-0.4%,-0.6,-5.7,3.0,-5.9
CCOP(=O)(OCC)/C(=N/OC(=O)c1ccc(Cl)cc1Cl)C(N)=O,2.2%,1.4,0.6%,14.1,-3.9,-2.8,-1.1
Cc1ccc(OCC(=O)N(C)CC(=O)NCc2ccco2)c(Br)c1,.,-8.4,0.0%,3.1,-5.8,5.6,-33.0
COc1ccc(CNCC(=O)Nc2ccccc2-n2cccc2)cc1,6.0%,-3.8,7.0%,-6.5,-1.3,.,-4.0
COc1cc2c(cc1OC)CN(c1ccc(-c3ccccc3OC)nn1)CC2,-28.6%,-0.8,-2.6%,-23.4,-3.4,?,-8.8
Cc1nc2c(C)[n+](CC(=O)c3ccccc3)ccc2n1C,7.2%,3.1,0.9%,8.5,-3.4,.,-15.8
O=C(N/N=C/c1ccc[nH]1)c1ccccc1OCc1ccccc1Cl,-7.9%,-8.9,-0.6%,?,0.6,?,-4.0
Cc1cccc(N(Cc2ccccc2)C(=O)CSC(C)C(=O)Nc2cc(C)on2)c1 (stereo unspecified),.,-14.9,-0.8%,2.8,-5.4,1.0,-1.2
CCOc1ccc(-c2nc(N)ncc2-c2ccccc2OC)c(O)c1,-9.3%,-6.5,-1.1%,-10.9,-1.1,-11.8,0.8
Cc1cc(N2CCN(C)CC2)nc2ccc(NC(=S)NC3CC3)cc12,9.0%,4.7,0.2%,0.8,-4.4,.,-11.9
COc1ccc(N2C(=O)c3ccccc3C(C)(C)C2=O)cc1,17.0%,-6.2,-1.9%,6.0,2.9,4.9,2.5
COc1cc(CN2CCN(CCCc3ccccc3)CC2CCO)cc(OC)c1 (stereo unspecified),22.1%,-3.4,0.5%,-3.8,5.3,-18.0,-22.8
Cc1ccc(CN2CCCN(C)CC2)c(C)c1,-18.9%,-4.3,0.8%,-2.8,-3.0,9.7,-9.6
O=C(Nc1cccnc1)c1ccccc1NS(=O)(=O)c1ccc(F)cc1,-2.8%,9.9,3.3%,1.8,-0.7,-1.3,-0.8
Cc1ccc(C)c(CSc2nc3[nH]ncc3c(=O)[nH]2)c1,14.3%,11.9,8.1%,-7.6,0.9,-1.1,-6.6
C(=N\N=C\c1ccccn1)/c1ccccn1,-7.4%,-9.7,1.9%,-24.9,-0.3,-28.0,-3.8
COC(=O)[C@@H](NC(=O)Nc1cccc(OC)c1)C(C)C,18.0%,7.5,5.7%[38.3 µM],3.3,-2.5,-8.4,-15.9
O=C(NC1CCCCC1NC(=O)c1ccco1)c1ccco1 (stereo unspecified),20.0%,1.7,-0.9%,-1.7,-1.8,0.7,-15.9
O=C(Cn1ccc(C(F)(F)F)n1)Nc1ccc(S(=O)(=O)NCc2ccco2)cc1,-18.5%,?,0.4%,-0.4,-2.0,-0.2,-20.2
Cc1ccc(S(=O)(=O)/N=C2\C=C(NS(=O)(=O)c3ccccc3)C(=O)c3ccccc32)c(C)c1,.,.,-1.0%,-15.9,0.1,-12.4,7.4
COc1ccccc1NC(=O)c1ccc(NC(=O)COC(=O)C2CCCCC2)cc1,14.2%,-3.3,-0.4%,-9.0,-0.3,-0.8,-0.6
O=C(N/C(=C\c1ccccc1)C(=O)N1CCOCC1)c1cccc(Br)c1,9.4%,-22.3,1.3%,-0.2,-4.6,0.0,-27.2
CCc1nnc(NC(=O)CN2CCOCC2)s1,?,0.0,13.6%[38.3 µM],-5.8,-0.9,-0.4,5.0
CCC(Oc1ccccc1C)C(=O)N1CCCN(C)CC1 (stereo unspecified),14.0%,-3.9,0.2%,1.8,1.1,6.7,-7.5
C[C@H](CO)N1C[C@H](C)[C@@H](CN(C)S(=O)(=O)c2ccc(Cl)cc2)OCc2cnnn2CCCC1=O,.,.,1.6%,-6.2,0.7,-1.9,-0.4
CS(=O)(=O)c1ccc2c(c1)SC1=NC(=O)/C(=C/c3ccco3)C(=N)N12,?,7.9,2.8%,-28.3,-3.9,-13.9,-3.2
COc1ccc2nc(NC(=O)CSc3cn[nH]n3)sc2c1,-1.0%,27.2,2.3%,0.8,-2.3,0.0,10.5
Fc1ccc2nc(C(F)(F)F)cc(N3CCOCC3)c2c1,13.3%,-0.6,-0.5%,10.8,1.2,-9.4,0.0
CC(C)c1ccc(NC(=O)N(CCc2nc3ccccc3[nH]2)C2CCCC2)cc1,13.5%,-3.3,0.2%,-0.4,-1.1,0.5,-15.4
Cc1onc(-c2ccccc2)c1C(=O)n1cc(Br)cn1,7.8%,-8.4,0.4%,7.1,-4.7,8.3,-7.2
CC(=O)c1cccc(NC(=O)c2cnccn2)c1,-6.3%,12.2,0.2%,-3.0,2.5,.,1.3
Cc1cc(=O)[nH]c(SCC(=O)N2CCCCCC2)n1,7.5%,16.3,-0.3%,8.7,0.8,3.9,-7.1
CCCCn1c(N)c(N(CCOC)C(=O)c2ccc(-c3ccccc3)cc2)c(=O)[nH]c1=O,.,-15.6,-0.7%,1.3,-5.9,15.8,3.7
CCc1ccc(Oc2coc3cc(OCC(=O)Nc4cc(C)ccc4C)ccc3c2=O)cc1,11.1%,-4.2,4.3%,-0.6,0.9,-0.6,-1.5
COc1ccc(CCNC(=O)c2ccc(CS(=O)(=O)c3ccc(C)cc3)o2)cc1OC,14.2%,-6.8,1.1%&1.7%,-0.4,-0.2,4.1,-6.7
CCOC(=O)c1c(C)n(CC)c2ccc(OC(=O)c3ccc([N+](=O)[O-])cc3)cc12,-1.7%,-8.5,3.3%,-9.7,4.4,27.3,-17.5
CN(C)C(=O)c1ccc(-c2cc(C(F)(F)F)n(C)n2)s1,8.5%,22.8,-0.7%,6.0,2.4,15.9,-2.0
Cc1ccc(C2(c3ccc(C)cc3)NC(=O)N(CC(N)=O)C2=O)cc1,6.2%,4.0,-0.2%,1.2,-3.8,6.4,-8.9
Cc1cc(C(=O)N2CCN(c3ccc([N+](=O)[O-])cc3)CC2)co1,3.2%,-26.5,0.3%,-13.6,-3.3,-8.9,-9.9
COc1ccc(C(=O)Nc2nc(-c3ccc(S(=O)(=O)N4CCOCC4)cc3)cs2)cc1,14.8%,-23.4,1.8%,-5.9,1.7,-3.8,20.8
O=C(Nc1nccs1)C1(S(=O)(=O)c2ccc(Cl)cc2)CC1,4.1%,3.7,-1.1%[38.3 µM],1.1,-1.0,1.3,-2.9
O=C(NCc1ccc(C(=O)O)cc1)OCc1ccccc1,6.0%,6.0,2.4%,8.2,-0.9,8.4,-4.4
Cc1nonc1-c1ccc2c(c1)OCO2,9.6%,?,-1.5%,5.7,-4.1,.,6.5
Nc1ncnc2c1nc(Sc1ccc(Cl)cc1)n2[C@@H]1O[C@@H]2COP(=O)(O)O[C@H]2[C@H]1O,.,.,5.7%,-12.9,-5.0,4.7,-32.4
Cc1[nH]n(C(N)=S)c(=O)c1N=Nc1cc(C(F)(F)F)ccc1Cl,11.3%,21.5,?,-20.9,-5.6,-16.1,-10.6
O=C(N/N=C/c1cccc2ccccc12)c1cc2ccccc2o1,5.3%,-46.7,7.2%,-19.8,-3.6,-21.5,-21.3
COc1ccc(C(=O)Nc2cnc(NC(=O)c3cccs3)cc2C)cc1,14.6%,-1.5,-1.5%,16.0,1.1,7.6,1.2
O=S(=O)(c1ccc(Br)cc1)N1CCCN(Cc2ccccc2F)CC1,0.5%,-9.4,-1.8%,-6.1,-0.5,-14.8,-7.0
CCOC(=O)C(c1ccccc1)N1CCN(c2ccc(OC)cc2)CC1 (stereo unspecified),-12.6%,3.2,2.3%,-29.3,0.3,-8.2,-5.4
O=C(Cn1nc(-c2ccc(Cl)cc2)ccc1=O)NCc1ccc2c(c1)OCO2,1.5%,-19.9,5.0%,-5.4,1.4,-11.1,-2.3
CC(C)=CCC/C(C)=C/CNC(=O)C[C@H]1C[C@H](C(=O)N2CCOCC2)[C@@]2(CCC3CCCC3)c3[nH]c4cc(CCC(=O)N(C)C)ccc4c3CCN2C1=O,.,.,?,-13.7,1.0,-8.5,.
Cc1c(CCC(=O)NC2CC2)c(=O)oc2cc(O)ccc12,18.3%,1.2,0.3%,-5.2,-8.8,-1.5,-35.2
O=C(Cn1cccn1)N1CCCC(Nc2ccc(F)c(F)c2)C1 (stereo unspecified),17.2%,-17.9,2.6%,0.8,-4.6,7.4,-17.4
O=C(Nc1cccc(C(=O)O)c1)/C(=C\c1ccc(F)cc1)NC(=O)c1ccco1,7.9%,2.4,1.4%,-0.6,-0.6,1.1,-23.3
O=C(Cn1cnc2ccccc21)Nc1ccc(F)c(F)c1,3.0%,-6.3,1.1%,-2.3,9.0,-13.5,-5.7
Cc1ccccc1-n1nnnc1SCc1cc(=O)n2ccsc2n1,0.8%,8.7,2.3%,6.9,-2.9,3.3,-4.5
COc1ccccc1CNC(=O)C(CC(C)C)NC(=O)C1CCC(C)CC1 (stereo unspecified),-1.6%,-19.5,3.9%,32.0,-2.3,0.0,-14.3
O=C(NC1CCCC1)C(c1ccncc1)N(CCCN1CCOCC1)C(=O)c1ccc(-c2ccccc2)[nH]1 (stereo unspecified),-1.0%,4.7,-0.5%,-1.4,-3.1,.,4.7
Cc1cc(NC(=O)c2ccccc2-c2ccccc2C(=O)O)no1,-8.4%,18.8,-1.7%,7.2,-2.9,3.0,1.8
Cc1cc(C(=O)OCC(=O)N2CCC(C)CC2)c2ccccc2n1,.,.,2.7%,-0.7,0.1,1.8,-0.4

# 2 neighbouring compounds out of the list so far, for reference:
SMILES,Sfp inh,TRPV1 potentiator,PINK1 expr mod,Six1-Eya2 inh,D2 agonist,CtBP-E1A inh,D2 potentiator
Cc1cc(NC(=O)c2ccccc2-c2ccccc2C(=O)O)no1,-8.4%,18.8,-1.7%,7.2,-2.9,3.0,1.8
Cc1cc(C(=O)OCC(=O)N2CCC(C)CC2)c2ccccc2n1,.,.,2.7%,-0.7,0.1,1.8,-0.4
